Screens from PubChem.
HNF4A DNA FP – change in binding of human HNF4A to DNA, primary screen, biochemical, fluorescence polarization, FITC-DNA | Hepatocyte nuclear factor 4-alpha (Homo sapiens), P41235 | 1 h | activity change, % at 10 µM | actives 0.3% (n = 360,000) | AID 1224865, 2016; in the data active means activity change above about 30%, passing the limit was not always enough;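 further: controls were the assay level and a saturating level of protein; the project sought stronger binding though the title names inhibitors; some compounds called inactive have numbers as strong as hits; positive values seem to mean higher polarization but the record does not say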
Target sequence (P41235 whole entry, looked up): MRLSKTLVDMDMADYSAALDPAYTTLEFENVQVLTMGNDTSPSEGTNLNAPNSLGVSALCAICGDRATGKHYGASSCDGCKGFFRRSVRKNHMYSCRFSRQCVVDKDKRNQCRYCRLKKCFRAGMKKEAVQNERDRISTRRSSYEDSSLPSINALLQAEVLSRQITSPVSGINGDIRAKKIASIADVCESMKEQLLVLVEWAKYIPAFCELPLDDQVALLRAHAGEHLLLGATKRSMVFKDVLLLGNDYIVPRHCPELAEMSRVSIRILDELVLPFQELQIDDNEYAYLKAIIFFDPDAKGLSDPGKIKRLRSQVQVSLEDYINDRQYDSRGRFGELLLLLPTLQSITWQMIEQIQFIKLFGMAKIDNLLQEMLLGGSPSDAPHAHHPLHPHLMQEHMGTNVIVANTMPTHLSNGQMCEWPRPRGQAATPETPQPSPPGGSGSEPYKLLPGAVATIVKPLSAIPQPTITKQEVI
RanGTP-Impb inh – inhibitors of RanGTP-importin-beta interaction, primary screen, biochemical, FRET, CFP-Ran, YFP-importin-beta, homogeneous. cell-free CFP-Ran/YFP-importin-beta FRET ratio. inhibition, % (concentration not given with the values). actives 1.1% (n = 300,000);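 active means most replicates above 15%; inconclusive means exactly half above 15%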;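 further: 0% = DMSO wells and 100% = Ran loaded with GDP instead of GTP; wells of about 40 µL received 100 nL stock; the first replicate is given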
AF4-AF9 inh – inhibitors of AF4 peptide binding to AF9, primary screen, biochemical, AlphaScreen, biotin-AF4 peptide, FLAG-AF9, single point; Protein AF-9 (Homo sapiens), P42568; inhibition, % at 10 µM; actives 0.47% (n = 350,000);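 active means every replicate reaching a set inhibition limit, whatever the replicate mean, cut at about 25% in these data; inconclusive means mean inhibition reaches that limit but some replicates miss it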;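 further: 0% = plate neutral control median and 100% = total signal loss; the record names both 10 and 1 µM as test concentration; the first replicate is given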
Target sequence (P42568 whole entry, looked up): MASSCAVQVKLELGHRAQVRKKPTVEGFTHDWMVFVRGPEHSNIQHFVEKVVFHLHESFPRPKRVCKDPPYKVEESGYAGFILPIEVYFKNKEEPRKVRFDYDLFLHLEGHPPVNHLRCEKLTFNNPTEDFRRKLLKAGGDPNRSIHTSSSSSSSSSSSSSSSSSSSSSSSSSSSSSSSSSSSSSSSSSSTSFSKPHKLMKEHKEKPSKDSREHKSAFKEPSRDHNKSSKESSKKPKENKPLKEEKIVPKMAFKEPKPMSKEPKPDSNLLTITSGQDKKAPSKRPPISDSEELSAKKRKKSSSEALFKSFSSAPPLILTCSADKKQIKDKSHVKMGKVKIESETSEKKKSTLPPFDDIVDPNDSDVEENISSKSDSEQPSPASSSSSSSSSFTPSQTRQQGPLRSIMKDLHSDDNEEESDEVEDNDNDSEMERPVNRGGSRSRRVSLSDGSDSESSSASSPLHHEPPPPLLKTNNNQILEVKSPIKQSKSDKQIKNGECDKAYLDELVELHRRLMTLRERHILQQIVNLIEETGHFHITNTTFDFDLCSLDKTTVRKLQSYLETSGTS
E coli growth – E. coli growth inhibition, primary screen, OD600. Escherichia coli growth, 23 h; stronger effect = lower value. OD600 absorbance (test concentration not listed). actives 0.21% (n = 330,000);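 active means OD600 absorbance below the run mean of sample wells minus 3.6 SD, in any replicate, cut at about 0.56 in these data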;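 further: stock transfer was 300 nL into about 60 µL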
FGF22 binding – binders of human FGF22 protein, primary screen, FGF22 synaptogenesis inhibitor project, biophysical, thermal shift, single point | calls only at 9.99 µM | recombinant FGF22 thermal shift, SYPRO orange fluorescence; percent of sucrose octasulfate shift, DMSO zero | AID 651658, 2012 | actives 1.5% (n = 340,000);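 active means melting point raised past a set limit in the mean and every replicate; inconclusive means no clear call; three in four hits are not shown here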
UCH37 DUB inh – inhibitors of human UCH37 deubiquitinase, primary screen, biochemical, Ub-AMC cleavage, fluorescence | purified proteasome/UCH37 | inhibition, % (test concentration not listed) | actives 0.33% (n = 330,000) | AID 588478, 2011;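 active means mean of two replicates above 20%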;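 further: 0% = compound-free wells with enzyme and 100% = wells lacking proteasome; stock transfer was 100 nL into about 20 µL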
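Material: human UCH37 enzyme supplied as purified proteasome complex / Amount: 0.15 nM proteasome as dispensed / Buffer or medium: pH 7.4 Tris-HCl (50 mM) with ovalbumin, ATP-MgCl2, DTT / Times: preincubation 30 min, reaction 25 min, room temperature / Technique: AMC fluorescence from Ub-AMC cleavage, excitation 355 nm, emission 460 nm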
Vif A3G – inhibitors of Vif binding to APOBEC3G peptide, primary screen, biochemical, TR-FRET, GST-Vif 1-94, biotin-A3G peptide, dose response retest (AID 1117319). Virion infectivity factor (Human immunodeficiency virus type 1 group M subtype B (isolate …. TR-FRET GST-Vif / biotin-A3G peptide binding; higher % means a stronger effect; test concentration not given here; strong numbers were not always called active. actives 0.57% (n = 260,000). one-dose inhibition, %; IC50 in µM for titrated hits;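 active means above the screen mean plus three standard deviations and confirmed in dose response; inconclusive means results disagree or hit not tested in dose response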;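 further: Vif residues 1-94 fused to GST binding biotinylated APOBEC3G peptide 110-148; 0% = full assay without inhibitor and 100% = GST in place of GST-Vif; retest series ran down from 100 µM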
An asterisk follows results filed as active; i = inactive; ? = inconclusive; . = no result given; & = joins results of further samples. Only part of the results is shown, so the mix of outcomes need not match the whole.

nr	canonical_smiles	HNF4A DNA FP	RanGTP-Impb inh	AF4-AF9 inh	E coli growth	FGF22 binding	UCH37 DUB inh	Vif A3G
1	Cc1ccc(S(=O)(=O)C2CS(=O)(=O)CC2O)cc1 (stereo unspecified)	1.8	-0.5	.	0.621	.	0.4	0.2%
2	CC(=O)Nc1ccc(C(=O)COC(=O)CCc2ccccc2)c(F)c1	3.1	.	0.0	0.675	i	3.8	-7.8%
3	Cc1ccsc1C(=O)N1CCC1(C)C(=O)NCc1cccnc1 (stereo unspecified)	-2.0	.	-1.0	.	i	.	.
4	CN(CC(=O)Nc1ccc2c(c1)OCO2)CC(=O)Nc1ccc(F)c(F)c1F	3.6	.	-1.8	0.699	i	4.2	.
5	Cc1nc2sccc2c(=O)n1-c1cccc(Cl)c1	0.7	3.7	.	0.683	.	2.2	-2.4%
6	N#Cc1ccc(-c2nc3ccccc3nc2-c2ccccc2)cc1C#N	-2.7	-1.9	5.9	0.654	i	-3.5	-48.6%
7	COc1ccc(NC2CCCN(C(=O)CCc3scnc3C)C2)cc1 (stereo unspecified)	-1.3	-2.2	0.5	0.706	i	2.7	.
8	CCc1ccc(N(CC(=O)NCc2ccco2)C(=O)CCC(=O)Nc2nccs2)cc1	0.5	-5.0	-10.5	0.654	i	3.9	-0.9%
9	CCOC(=O)c1ccc(NC(=O)C(C)NS(=O)(=O)c2ccc(OC)cc2)cc1 (stereo unspecified)	3.4	0.9	.	0.657	.	4.6	13.8%
10	COCCNC(=O)C(c1ccc(C)cc1)N(C(=O)CCC(=O)Nc1ccccn1)c1ccc(C)cc1 (stereo unspecified)	-0.6	3.4	-0.8	0.627	i	2.0	.
11	O=C(Nc1ccc(-c2nnn(CC(=O)N3CCN(C(=O)c4ccco4)CC3)n2)cc1)c1ccc(F)cc1	1.0	3.4	-9.6	0.656	i	2.2	-5.1%
12	COc1ccc(NC(=O)Cn2c(CCC(=O)O)ccc2-c2ccc(C)cc2)cc1	2.2	4.7	4.1	0.652	i	-7.2	2.0%
13	CCN1CCN(c2ccc(NC(=O)c3cccc(OCc4ccccc4)c3)cc2)CC1	1.4	2.0	.	0.631	.	-11.2	3.2%
14	Oc1cc(O)c2c(c1)OC(c1ccc(O)c(O)c1)C(O)C2 (stereo unspecified)	4.5	.	-3.2	0.69&0.683	i	0.6	.
15	CC(C)NC(=O)COC(=O)c1cccc(NS(=O)(=O)/C=C/c2ccccc2)c1	1.7	3.6	-0.3	0.656	i	4.0	32.8%
16	O=C(N/N=C/C=C/c1ccc(Br)cc1)C(O)c1ccccc1 (stereo unspecified)	0.1	1.7	-1.3	.	i	.	-2.0%
17	CCO[C@@H]1OC(C(=O)NC2CC2)=C[C@H](c2coc3ccccc3c2=O)[C@H]1CCCO	-0.7	-4.2	.	.	.	-0.5	.
18	C[C@H](CO)N1C[C@H](C)[C@@H](CN(C)C(=O)NC2CCCCC2)Oc2c(cccc2N(C)C)C1=O	4.6	.	-1.0&-3.0	.	i	-1.0	.
19	COC(=O)c1cc2sccc2n1CC(=O)Nc1ccc(OC)c(OC)c1OC	2.9	2.4	.	0.671	.	-0.7	-2.6%&-6.6%
20	O=C(NCCC1=CCCCC1)c1cc(S(=O)(=O)N2CCOCC2)ccc1F	-3.2	3.4	-0.7	0.651	i	12.9	3.2%
21	Cc1cccc(OCCCC(=O)NCC(=O)Nc2cccc(C)c2C)c1	-1.8	-1.6	-4.4	0.724	i	4.4	0.0%
22	N#CCn1nnc(-c2ccc3c(c2)OCO3)n1	0.2	6.5	.	0.672	.	10.2	8.0%
23	O=C(c1cccn(Cc2ccc(C(F)(F)F)cc2)c1=O)N1CCOCC1	-4.2	0.6	0.2	0.692	i	3.0	19.0%
24	O=c1[nH]n(CC2COC3(CCCCC3)O2)c(=O)c2ccccc12 (stereo unspecified)	-2.1	3.1	-96.7	0.663	i	4.1	1.8%
25	CCOc1ccccc1NC(=O)C(CC(C)C)NC(=O)C1CCCCC1 (stereo unspecified)	1.0	-1.3	.	0.716	.	0.5	1.7%
26	CCN(CC)S(=O)(=O)c1ccc2c(c1)nc(CCC(=O)OCC(=O)Nc1cc(Cl)cc(Cl)c1)n2C	1.4	-0.3	.	.	.	0.5	.
27	N#C/C(=C\c1ccc(O)c(O)c1)C(=O)Nc1cccc2ncccc12	-29.7	93.3*	10.7	.	i	.	.
28	C=CCc1cc(OC)ccc1OCCOCCN1CCc2ccccc2C1	1.3	-2.2	8.9	0.665	i	2.4	2.7%
29	Cc1ccc(NC(=O)/C(=C\c2ccccc2)NC(=O)/C=C/c2ccccc2)cc1	-2.9	0.8	.	0.733	.	3.6	1.7%
30	CC(=O)c1c(-c2ccccc2)c2cc(Cl)ccc2n(C)c1=O	-1.1	0.5	1.1	0.672	i	3.0	-2.7%
31	CC1CN(CC(O)COc2ccc(C(C)C)cc2)CC(C)O1 (stereo unspecified)	-1.6	-4.9	.	0.703	.	2.3	-0.2%
32	CC(C)NC(=O)c1ccc(N2CCOCC2)nc1	3.0	2.3	.	0.705	.	3.3	?
33	Cc1ccc(C(=O)NCCc2cc3ccc(C)c(C)c3[nH]c2=O)cc1[N+](=O)[O-]	0.6	9.4	-0.4	0.673	i	1.7	-1.1%
34	Cc1ccc(S(=O)(=O)C2(C(=O)N(C)C3CCCCC3)CC2)cc1	-1.4	2.4	-12.7	0.647	i	0.6	21.2%
35	CCc1ccc(OCC(=O)N2c3ccccc3CCc3ccccc32)cc1	1.5	1.2	.	0.702	.	3.6	4.5%
36	O=S1(=O)CCN(Cc2ccc(Cl)cc2)CC1	0.1	-1.5	.	0.677	.	4.8	1.4%
37	COCOCCn1cc(CN2CCS(=O)(=O)N(Cc3ccc(-c4ccc(OC)nc4)cc3)C(C(C)C)C2=O)nn1 (stereo unspecified)	-6.2	.	-0.3	.	i	.	13.1%
38	COc1ccc(CCNC(=O)c2ccc3c(c2)OCO3)cc1	1.8	2.9	-6.9	0.69	i	-0.7	.
39	Cc1cc(Br)c(S(=O)(=O)n2nnc3ccccc32)cc1C	0.4	6.3	.	0.699	.	5.7	-2.0%
40	COc1cc(OC)cc(C(=O)NNC(=O)C2CCCC2)c1	-5.6	5.1	1.0	0.664	i	0.5	.
41	O=C(O)CCC(=O)NNc1nc2ccccc2nc1-c1ccccc1	-0.9	-0.3	-0.1	0.688	i	5.3	9.4%
42	N#Cc1c(NC(=O)c2cc(-n3cnnc3)ccc2Cl)sc2c1CCCC2	-1.2	-0.2	.	0.734	.	5.5	7.9%
43	O=C(Nc1cccc(NC(=O)c2cc([N+](=O)[O-])ccc2Cl)n1)c1cc([N+](=O)[O-])ccc1Cl	1.7	7.6	.	0.613	.	4.7	.
44	O=C(Nc1cnn(Cc2ccc(F)cc2)c1)c1cnccn1	0.4	-0.8	.	0.718	.	-0.5	4.7%
45	COc1ccccc1NC(=O)N1CCC(c2nnc(SCC(N)=O)n2C)CC1	0.3	-1.9	.	0.713	.	1.5	-4.4%
46	CC(C)Nc1nc2n(c(=O)n1)CCN2C(C)C	1.6	-2.5	.	0.694	.	4.5	17.9%
47	COc1ccc(S(=O)(=O)n2cccc2)cc1	2.0	-3.7	-9.0	0.606	i	2.6	.
48	CC(C)CSc1ccc(S(=O)(=O)NCC(=O)O)cc1[N+](=O)[O-]	-1.7	.	-3.8	0.651	i	2.2	.
49	CC(=O)c1cnc2cc(C)nn2c1C	-1.3	-5.0	.	0.681	.	-2.3	-6.3%
50	Cc1cc(=O)nc2c3ccccc3n(CC(=O)Nc3ccccc3Br)n12	15.2	-3.0	-0.8	0.691	i	-2.8	-21.6%
51	c1ccc2nc(-c3nc4ccccc4o3)ccc2c1	-0.4	4.0	.	0.706	.	-109.8	-3.3%
52	CCOC(=O)C1(CCOc2ccccc2)CCN(Cc2cc(OC)ccc2OC)CC1	0.5	?	11.7	0.678	i	3.8	-12.0%
53	COc1ccccc1NC(=O)CN1CCN(CC(=O)Nc2ccc(S(N)(=O)=O)cc2)CC1	6.9	6.3	0.6	0.631	i	-0.6	.
54	CCc1nc(Nc2ccc(OC)c(OC)c2)c2nnn(Cc3ccccc3Cl)c2n1	-2.8	0.7	.	0.748	.	-3.4	-7.4%
55	Cc1ccc(/C=C/C(=O)Nc2nn[nH]n2)o1	-1.5	-1.4	-8.8	0.666	i	2.4	.
56	CCCCNC(=O)C1(NC(=O)Nc2ccc(C)cc2)CCCCC1	0.2	-1.7	-0.5	0.68	i	-1.9	-6.3%
57	O=C(CCNC(=O)c1ccccc1Cl)NCC12CC3CC(CC(C3)C1)C2	-0.5	-2.2	.	0.68	.	6.2	.
58	Cn1c(C(=O)NCC2CCCO2)cc2oc3ccccc3c21 (stereo unspecified)	-4.5	0.6	.	0.664	.	3.7	-2.2%
59	CCOC(=O)COc1cnc2ccccc2n1	2.3	-2.0	0.5	0.683	i	-19.0	13.8%
60	COc1ccc(NC(=O)CSC2=NN3CCCC(=O)N=C3S2)c(OC)c1	-1.5	2.0	1.5	0.634	i	3.0	.

Next part.
nr	canonical_smiles	HNF4A DNA FP	RanGTP-Impb inh	AF4-AF9 inh	E coli growth	FGF22 binding	UCH37 DUB inh	Vif A3G
61	Cc1ccc(S(=O)(=O)NC(=O)Nc2ncc3c(n2)CC(c2ccco2)CC3=O)cc1 (stereo unspecified)	-1.9	.	-1.4	0.658	i	1.9	.
62	Clc1ccc(C(c2nnnn2C2CCCCC2)N(Cc2cccnc2)Cc2ccco2)cc1 (stereo unspecified)	1.3	2.7	.	0.749	.	-4.8	-4.8%&12.3%
63	O=C(COc1ccccc1[N+](=O)[O-])N1CCN(S(=O)(=O)c2ccccc2)CC1	-0.6	-1.1	-1.7	0.67	i	1.3	-1.6%
64	O=C(O)CCNS(=O)(=O)c1cccc2nsnc12	4.3	.	-0.4	0.682	i	-0.8	.
65	CC(c1ccccc1)C1CC(=O)N(C2CCCCC2)C1=O (stereo unspecified)	0.9	-1.3	.	0.659	.	0.4	23.6%
66	O=C(c1n[nH]c2ccccc12)N1CCN(S(=O)(=O)c2ccccc2)CC1	0.1	.	-2.2	0.661	i	4.2	2.7%
67	Cc1ccc(S(=O)(=O)NCCCCC(NC(=O)OC(C)(C)C)C(=O)O)cc1 (stereo unspecified) (tested in a mixture with another compound)	0.8	0.1	.	0.742	.	2.3	7.6%
68	O=C(NCCCO)C(=O)c1c(-c2ccccc2)cc2ccccn12	-1.4	6.4	0.5	0.718	i	9.9	-1.9%
69	Cc1csc2nc(CNS(=O)(=O)N(C)C)cn12	1.5	8.2	0.7	0.784	i	-1.9	-1.7%
70	CN(Cc1ccccc1F)c1cc2c(c3c1ccn3C)C1CCC2O1 (stereo unspecified)	-4.7	.	28.6*	.	i	.	.
71	N#C/C(=C\c1ccc(-c2cccc([N+](=O)[O-])c2)o1)c1nnc(N2CCOCC2)n1-c1ccccc1	.	0.7	0.3	0.671	i	8.4	?
72	COc1ccc(NC(=O)C2Cc3c(-c4ccc5c(c4)OCO5)ccnc3O2)cc1 (stereo unspecified)	-3.6	.	-0.5	.	i	.	.

Part of the list above, limited to RanGTP-Impb inh and AF4-AF9 inh:
no. | SMILES | RanGTP-Impb inh | AF4-AF9 inh
66 | O=C(c1n[nH]c2ccccc12)N1CCN(S(=O)(=O)c2ccccc2)CC1 | . | -2.2
65 | CC(c1ccccc1)C1CC(=O)N(C2CCCCC2)C1=O (stereo unspecified) | -1.3 | .
